KCNQ2 block – KCNQ2 potassium channel inhibitors, primary screen, cell-based, CHO-K1, FluxOR thallium flux, B-score (AID 2156); hit rate 1.1% among 310,000; B-score at 10 µM; 20 min; active compounds read low; only compounds with negative scores are shown here; some inactives read as strong as hits; O88943;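 active = fluorescence ratio B-score at most minus 3 library SDs, with starting brightness B-score within 2 library SDs, cut at about -5.5 in these data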
Target sequence (O88943 whole entry, looked up): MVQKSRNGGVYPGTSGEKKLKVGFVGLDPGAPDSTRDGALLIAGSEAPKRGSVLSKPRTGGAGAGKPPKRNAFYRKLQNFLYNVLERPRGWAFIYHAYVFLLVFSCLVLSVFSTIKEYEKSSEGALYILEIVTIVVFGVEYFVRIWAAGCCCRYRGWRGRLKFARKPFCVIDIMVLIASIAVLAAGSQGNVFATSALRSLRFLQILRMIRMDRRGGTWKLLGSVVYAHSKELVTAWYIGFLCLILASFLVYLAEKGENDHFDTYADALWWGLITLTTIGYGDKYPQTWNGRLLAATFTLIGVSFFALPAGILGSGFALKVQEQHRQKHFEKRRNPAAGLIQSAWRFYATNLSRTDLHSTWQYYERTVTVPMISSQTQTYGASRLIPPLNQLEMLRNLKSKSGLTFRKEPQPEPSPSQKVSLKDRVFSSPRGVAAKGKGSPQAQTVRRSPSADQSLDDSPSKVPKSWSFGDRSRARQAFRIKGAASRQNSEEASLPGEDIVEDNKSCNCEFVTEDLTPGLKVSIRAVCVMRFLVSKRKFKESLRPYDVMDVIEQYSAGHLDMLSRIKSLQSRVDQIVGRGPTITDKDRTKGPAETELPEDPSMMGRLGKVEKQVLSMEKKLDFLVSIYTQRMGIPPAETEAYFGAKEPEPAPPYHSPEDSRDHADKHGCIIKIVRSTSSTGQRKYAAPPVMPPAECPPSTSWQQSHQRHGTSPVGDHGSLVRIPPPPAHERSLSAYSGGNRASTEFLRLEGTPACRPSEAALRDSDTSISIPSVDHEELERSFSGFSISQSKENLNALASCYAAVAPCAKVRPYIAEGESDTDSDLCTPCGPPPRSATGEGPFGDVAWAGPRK
KCNQ2 block baseline – further read-out of KCNQ2 block, marked with its call; B-score; measured here: initial fluorescence intensity artifact check;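 brightness before thallium and not channel activity; 0 = typical well and far values either way flag optical interference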
An asterisk follows results filed as active; i = inactive. The list is partial; the hit share may differ from the screen's.

Preview:
SMILES	KCNQ2 block	KCNQ2 block baseline
O=C(COC(=O)Cc1ccc(Cl)cc1)Nc1cc(S(=O)(=O)N2CCOCC2)ccc1N1CCCC1	i	-1.91
O=C(O)c1ccc(S(=O)(=O)c2ccc3c(c2)C(=O)N(NC(=O)c2ccncc2)C3=O)cc1	i	-0.96
COCCCNC(=O)CN(c1cc(Cl)ccc1OC)S(=O)(=O)c1ccc(C)c([N+](=O)[O-])c1	i	-0.33
COc1cccc(NC(=O)c2nc3nc(C)cc(C(F)F)n3n2)c1	i	0.65
CCNS(=O)(=O)c1ccc(CCC(=O)N2CCN(Cc3ccccc3)CC2)cc1	i	0.68

The whole of this part, from the first entry:
SMILES	KCNQ2 block	KCNQ2 block baseline
O=C(COC(=O)Cc1ccc(Cl)cc1)Nc1cc(S(=O)(=O)N2CCOCC2)ccc1N1CCCC1	i	-1.91
O=C(O)c1ccc(S(=O)(=O)c2ccc3c(c2)C(=O)N(NC(=O)c2ccncc2)C3=O)cc1	i	-0.96
COCCCNC(=O)CN(c1cc(Cl)ccc1OC)S(=O)(=O)c1ccc(C)c([N+](=O)[O-])c1	i	-0.33
COc1cccc(NC(=O)c2nc3nc(C)cc(C(F)F)n3n2)c1	i	0.65
CCNS(=O)(=O)c1ccc(CCC(=O)N2CCN(Cc3ccccc3)CC2)cc1	i	0.68
CC(C)(C)c1ccccc1NC(=S)NCc1ccccc1	i	-0.01
CC(C)C(c1nnnn1Cc1ccco1)N1CCN(c2cccc(Cl)c2)CC1 (stereo not drawn)	i	-1.05
COc1ccccc1NC(C)=[N+](C)CCNS(=O)(=O)c1ccc(Cl)cc1	i	-0.03
CNS(=O)(=O)c1ccc2c(c1)oc(=O)c1cc(S(=O)(=O)NC)ccc12	i	-0.05
Cc1ccccc1N(C(=O)CS(=O)CC(=O)Nc1ccc(F)cc1)C(C)C(=O)NC(C)(C)C (stereo not drawn)	i	-0.1
COc1ccc(NS(=O)(=O)c2ccc3nc(COc4ccc(Cl)c(C)c4)[nH]c3c2)cc1	i	2.48
Cc1ccc(CNC(=O)[C@@H](NC(=O)C2CCN(C(=O)[C@@H](N)CC(C)C)CC2)C(C)C)cc1	i	-0.3
C/C(=N\Nc1ccc([N+](=O)[O-])cc1[N+](=O)[O-])c1cc2c(ccc3ccccc32)oc1=O	i	1.25
CCC(C)(C)C(=O)O[C@H]1C[C@@H](C)C=C2C=C[C@H](C)[C@H](CC[C@@H]3C[C@@H](O)CC(=O)O3)[C@H]21	i	-0.03
N#C/C(=C\C=C\c1ccccc1)c1nc(-c2ccc(Cl)cc2)cs1	i	0.25
COc1ccccc1/C=C/CN1CCNC(=O)C1CC(=O)NCCc1cnccn1 (stereo not drawn)	i	0.47
COc1ccc(-c2nn(-c3ccccc3)cc2C2CC(c3cccs3)=NN2C(=O)CCC(=O)O)cc1 (stereo not drawn)	i	0.55
O=C(N=C1SC2CS(=O)(=O)CC2N1c1ccc(Cl)cc1Cl)C1CC1 (stereo not drawn)	i	1.73
Cc1ccc(NC(=O)C2=NNC(=O)CC2)cc1F	i	0.71
Cc1ccc(C)c(S(=O)(=O)NCCCN2CCOCC2)c1	i	-0.49
CCOC(=O)C1=C(C)NC(=O)NC1/C=C/c1ccccc1OC (stereo not drawn)	i	0.5
CC(=O)c1ccc(NC(=S)Nc2ccc(Br)c(Cl)c2)cc1	i	-0.12
CCn1cc(C(=O)OCC(=O)N(C)C2CCS(=O)(=O)C2)c(=O)c2ccc(C)nc21 (stereo not drawn)	i	1.67
Cc1cccc(N2CC(C(=O)Nc3ccc(S(=O)(=O)N4CCOCC4)cc3)CC2=O)c1C (stereo not drawn)	i	-0.19
CCCc1c(CC)c(=N)c2ccccc2n1C	i	0.51
CCc1nc2c(s1)CCc1onc(-c3ccc(Cl)cc3)c1-2	i	0.07
COc1cccc(Cn2c(N)c(C#N)c3nc4ccccc4nc32)c1OC	i	1.9
CCCCN=C1N/C(=C\c2ccco2)C(=O)N1c1ccccc1	i	-1.04
CCN1CCN(C(=O)C(NS(=O)(=O)c2ccc3nc(C)sc3c2)C(C)C)CC1 (stereo not drawn)	i	-0.24
COc1ccc(CN=C(Nc2ccccc2)SC2CC(=O)N(C)C2=O)cc1 (stereo not drawn)	i	0.88
COc1ccc(OC)c(CNC(=O)C2CCCN(c3ncnc4c3nc3n4CCCCC3)C2)c1 (stereo not drawn)	i	-0.75
O=C(Nc1nc2ccc([N+](=O)[O-])cc2s1)C1CCCO1 (stereo not drawn)	i	2.15
CC(C)COc1ccc(C(=O)Nc2scc(-c3ccc(Cl)cc3Cl)c2C(N)=O)cc1	-7.07*	-0.6*
COc1ccc(CCNc2oc(COc3ccccc3)nc2C#N)cc1	i	-0.63
CCc1nnc(NC(=O)c2ccc(S(=O)(=O)N(CCOC)CCOC)cc2)o1	i	-1.1
O=C(CSc1nc2ccccc2[nH]1)Nc1nc(-c2ccc(Br)cc2)cs1	i	2.25
C=CCOn1c(-n2nc(C)cc2C)nc2ccccc2c1=O	i	-1.37
O=c1c2ccccc2ncn1Cc1ccccc1	i	-0.02
O=C(NCCCNc1ccc([N+](=O)[O-])cc1Cl)c1ccccc1F	i	2.79
CCNC(=S)SCCOc1ccc(C)cc1	i	0.12
CCOC(=O)c1cnc2nc(SCc3ccccc3Cl)[nH]n2c1=O	i	-0.49
CCCN(CC1CC1)C(=O)COc1ccccc1C(=O)NCc1ccccc1	-7.74*	0.69*
CCCc1cc(-n2cnc3ccccc32)n2c(nc3ccccc32)c1C#N	i	-0.93
S=C1SCN(CCN2CCOCC2)CN1Cc1ccccc1	i	-0.52
Cc1cc(C(=O)CN2C(=O)NC(c3ccccc3)(c3ccccc3)C2=O)c(C)n1Cc1ccco1	i	0.65
CCC(C(=O)OCC(=O)Nc1ccc(C(=O)Nc2ccc(OC)cc2)cc1)c1ccccc1 (stereo not drawn)	i	0.48
Cc1ccc(-c2nc3ncccc3o2)cc1NC(=O)c1cccs1	i	6.37
CCOC(=O)c1ccc(N2CCN(C(=O)c3ccccc3)CC2)c(NC(=O)c2ccco2)c1	i	-0.73
Cn1nccc1NS(=O)(=O)c1ccc(NC(=O)C(F)(F)F)cc1	i	-1.28
CC1CCN(S(=O)(=O)c2ccc3c(ccn3CC(=O)O)c2)CC1	i	-0.14
CCc1n[nH]c2c1/C(=N\O)CC(C)(C)C2	i	0.01
CCCCCn1c(=O)c(C(=O)OCC)c(Cl)c2ccccc21	i	0.25
CC(C)CSc1nc2ccccc2n1CC(=O)O	i	1.74
COc1ccc(C(C)=O)cc1COC(=O)c1cc2ccccc2cc1O	i	2.33
COc1ccc(O)c(C(=O)c2cnn(-c3ccccn3)c2)c1	i	-0.72
CCOC(=O)C1=C(C)N(C)C(=O)NC1c1c(OC)ccc2ccccc12 (stereo not drawn)	i	-0.16
O=C(NCc1ccccc1)c1onc(CSc2ccc(Cl)cc2)c1C(=O)NCC1CC1	i	0.71
CCOC(=O)C1=C(CSc2nc(-c3ccncc3)ccc2C#N)OC(N)=C(C#N)C1c1ccc(OC)cc1 (stereo not drawn)	i	0.97
S=C(NN=C1CCN(Cc2ccccc2)CC1)NC1CCCCC1	i	-0.14
CCN(N=Nc1cccc([N+](=O)[O-])c1)c1cccc([N+](=O)[O-])c1	i	0.59

New compounds follow.
SMILES	KCNQ2 block	KCNQ2 block baseline
O=C(O)CCN=Cc1c(O)c2ccccc2oc1=O	i	-1.94
Cc1ccccc1N1CCN(C(=O)c2ccccc2NC(=O)/C=C\C(=O)O)CC1	i	1.14
Cc1cc(C)cc(NC(=O)C2CCCN(c3nccc(C)n3)C2)c1 (stereo not drawn)	i	0.37
Nc1ccccc1SC/C=C/CSc1ccccc1N	i	-0.58
CC(C)Sc1nc(N2CCCC2)c2c(c1C#N)CC(C)(C)OC2	i	-1.21
c1ccc(CN2CCN(c3nc(-c4ccccc4)nc4ccccc34)CC2)cc1	i	1.76
COc1cc(OC)c(NC(=O)c2c(-c3ccccc3)noc2C)cc1Cl	i	-1.66
O=S(=O)(NCCc1csc(-c2cccnc2)n1)c1ccc2c(c1)OCCO2	i	-0.66
COc1cc2c(cc1OC)C(c1c(Cl)cccc1Cl)NC(=O)C2 (stereo not drawn)	i	2.97
Cc1cccc(C(=O)OCC(=O)Nc2c(C)nn(-c3ccccc3)c2C)c1O	i	0.23
CCOc1cc2oc(=O)c3c(c2cc1Cl)CCC3	i	1.29
COc1cc(C2/C(=C(\O)c3ccc4c(c3)OCCO4)C(=O)C(=O)N2Cc2ccccc2)ccc1O (stereo not drawn)	i	0.11
CC1(C)Cc2nc3sc4c(N(CCO)CCO)nnnc4c3cc2CO1	i	-0.28
Cc1ccc(C)c(OCCCC(=O)Nc2ccc(N3CCOCC3)cc2)c1	i	1.23
CSc1ccc(S(=O)(=O)N2CCC(C(=O)Nc3ccc(C(N)=O)cc3)CC2)cc1	i	1.01

Three entries from above, sorted by molar mass, descending:
SMILES	KCNQ2 block	KCNQ2 block baseline
O=S(=O)(NCCc1csc(-c2cccnc2)n1)c1ccc2c(c1)OCCO2	i	-0.66
CC1(C)Cc2nc3sc4c(N(CCO)CCO)nnnc4c3cc2CO1	i	-0.28
COc1cc(OC)c(NC(=O)c2c(-c3ccccc3)noc2C)cc1Cl	i	-1.66

Following part.
SMILES	KCNQ2 block	KCNQ2 block baseline
Cc1ccc(N(CC(=O)NCc2ccc3c(c2)OCO3)S(=O)(=O)c2c(C)noc2C)cc1	i	1.45
Cn1cc(P(=S)(N2CCOCC2)N2CCOCC2)cc1P(=S)(N1CCOCC1)N1CCOCC1	i	1.17
Cc1cccc(-n2c(-c3ccncc3)n[nH]c2=S)c1C	i	-0.26
CN(C)c1nc(NCc2ccccc2)nc(SCC(=O)Nc2ccc(Cl)c(Cl)c2)n1	i	-0.13
COc1ccc(C2=NS(=O)(=O)N(C)C(C(=O)N3C(C)CCCC3C)=C2)cc1 (stereo not drawn)	i	-1.58
O=C(Nc1ccc2c(c1)C(=O)OC2)c1ccc(Cl)cc1	i	-0.9
N#CC1=C(N)OC2=C(C(=O)CCC2)C1CCc1ccccc1 (stereo not drawn)	i	3.51
O=C(Oc1cccnc1)c1ccco1	i	1.13
CC(C)CCNC(=O)C(c1cccnc1)N(Cc1ccccc1)C(=O)Cn1nnc2ccccc21 (stereo not drawn)	i	0.57
COc1ccc(COCCN2CCN(S(=O)(=O)c3ccc(C)cc3)CCC2=O)cc1	i	-0.43
COc1ccc(C2C(C(C)=O)=C(O)C(=O)N2c2ccccn2)cc1 (stereo not drawn)	i	-0.07
COc1ccc(OCCC(=O)N2CCOCC2)cc1	i	1.09
O=C1C=C(NCc2ccco2)CC(c2ccc(Cl)cc2)C1 (stereo not drawn)	i	0.02
Cc1cc(Nc2ncc(Cl)cc2Cl)n(-c2ccccn2)n1	i	0.82
Cn1c(SCC(=O)Nc2ccc(NC(=O)c3ccccc3F)cc2)nnc1-c1ccncc1	i	-0.36
COc1ccc(CCN2C(=S)N(C)C(=O)C2CC(=O)Nc2ccc(F)cc2)cc1 (stereo not drawn)	i	0.17
C=CCN(CC=C)Cc1ccc(C(=O)OC)o1	i	1.67
O=S(=O)(c1ccccc1)C1CON(Cc2ccccc2)C1c1ccccc1 (stereo not drawn)	i	-0.2
O=C(O)c1cc(-c2cccs2)nn1-c1ccccc1	i	1.24
Cc1cc(OC(=O)N2CCCCC2)cc(C)c1Cl	i	-0.14
CCOc1cc(C)nc(N2CCC(C(=O)Nc3ccccc3OCC)CC2)n1	i	0.36
COc1ccc(C(=O)C(CN2CCCC2)c2ccccc2)cc1 (stereo not drawn)	i	1.22
COc1ccc(S(=O)(=O)NC(C)C(=O)Nc2cccc(C(C)=O)c2)cc1 (stereo not drawn)	i	1.76
Cc1cc(F)ccc1S(=O)(=O)N1CCCOC1CNC(=O)C(=O)NCC(C)C (stereo not drawn)	i	-0.85
COc1ccc(NC(=O)CN(C)CC(=O)Nc2cccc(C(F)(F)F)c2)cc1	i	-0.01
COC(=O)C1(CC2CC(c3ccccc3)=NO2)CCN(C(=O)OC(C)(C)C)CC1 (stereo not drawn)	i	0.81
O=S(=O)(NCc1ccccc1F)c1cccc(S(=O)(=O)N2CCOCC2)c1	i	-1.61
c1ccc([C@H]2CC3C[C@@H](c4ccccc4)N2O3)cc1	i	-0.48
CC1CC(CC(=O)NNc2nc(-c3ccccc3)cs2)C(=O)O1 (stereo not drawn)	i	-1.01
COc1ccc(N(CC(=O)NCc2ccc(Cl)cc2)S(=O)(=O)c2c(C)nn(C)c2C)cc1	i	-1.93

Pulled by compound from the entries so far:
SMILES	KCNQ2 block	KCNQ2 block baseline
CN(C)c1nc(NCc2ccccc2)nc(SCC(=O)Nc2ccc(Cl)c(Cl)c2)n1	i	-0.13
Cc1cccc(C(=O)OCC(=O)Nc2c(C)nn(-c3ccccc3)c2C)c1O	i	0.23
Cc1ccc(N(CC(=O)NCc2ccc3c(c2)OCO3)S(=O)(=O)c2c(C)noc2C)cc1	i	1.45
COc1cccc(NC(=O)c2nc3nc(C)cc(C(F)F)n3n2)c1	i	0.65
CCCN(CC1CC1)C(=O)COc1ccccc1C(=O)NCc1ccccc1	-7.74*	0.69*

Carrying on.
SMILES	KCNQ2 block	KCNQ2 block baseline
CN1C(=O)Cc2cc(S(=O)(=O)N3CCN(c4ccccc4F)CC3)ccc21	i	-0.84
CC(C)N(C(=O)COC(=O)c1ccccc1C(=O)N1CCN(c2ccc(F)cc2)CC1)C(C)C	i	1.77
Cc1csc(NC(=O)c2ccc(COc3ccccc3)o2)n1	i	-0.05
CS(=O)(=O)N1CCN(c2ccc(NC(=S)NC(=O)c3ccc4c(c3)OCO4)cc2)CC1	i	-0.28
CN(C)C(=O)CN1c2cccc3cccc(c23)S1(=O)=O	i	2.03
COC(=O)c1ccc(/C=N/NC(=O)c2cccc(F)c2)cc1	i	-1.09
O=C(Nc1ccccc1N1CCOCC1)C1CCN(S(=O)(=O)c2ccc(Cl)cc2)CC1	i	0.25
COc1ccccc1NC(=O)Cn1c(=O)n(CCc2c[nH]c3ccccc23)c(=O)c2cccnc21	i	1.99
O=C(/C=C/c1ccco1)NC1CCCC1	i	0.43
Cc1ccccc1C1=N/C(=C/c2cccnc2)C(=O)O1	i	1.55

Source: PubChem (Johns Hopkins Ion Channel Center)
